# VACV mCherry inh: vaccinia inhibition (mCherry reporter); Potency, µM (titrated, usually from 36.5 µM), for inactives: at the highest dose activity change, negative = inhibition, most hits filed as inhibitors; Vaccinia virus mCherry reporter infection, fluorescence; about a quarter of the inactives have no number; actives 0.63% (n = 310,000); AID 720579; active = well fitted inhibition curve with a large enough effect; inconclusive = small, poorly fitted or top-dose-only effect; inactive = no such curve, though single readings can be large or run the other way; tested in A549 cells; also: nearly all actives have a fitted effect of over 35% in size; inactives centre near -10
# Vaccinia Venus: inhibitors of vaccinia virus (Venus reporter). AID 720580. actives 0.46% (n = 330,000). Potency, µM (doses to about 36.5 µM), for inactives: at the highest dose activity change, negative = inhibition, actives largely listed as inhibitors. Vaccinia virus Venus reporter expression, fluorescence; active means well fitted inhibition curve with a large enough effect; inconclusive means small, poorly fitted or top-dose-only effect; inactive means no such curve, though single readings can be large or run the other way; tested in A549 cells; also: nearly all actives have a fitted effect of over 30% in size; inactives centre near -10
# Numbers without * were called inactive; i = inactive; ? = inconclusive; . = not tested or not shown; & = joins results of further samples; [ ] = remark or other dose. % is scaled to controls: 0 for no effect and ±100 for the full control effect; potency is read from the fitted curve at half-maximal effect.
SMILES,VACV mCherry inh,Vaccinia Venus
O=C(NCCCl)Nc1cc([N+](=O)[O-])ccc1Cl,-14%,9%
CCCSc1ccc([C@@H]2[C@H]3C(=O)N(C)C(=O)[C@H]3[C@]3(C(=O)OC)CCCN23)cc1OC,i,-7%
COc1ccc(NC(=O)Nc2cccc3c2O[C@H](CN(C)C(=O)Nc2ccc(OC)cc2)[C@@H](C)CN([C@H](C)CO)C3=O)cc1,16%,-7%
Cc1ccc(NC(=O)COC(=O)[C@H](C)N2C(=O)C3CC=CCC3C2=O)cc1S(=O)(=O)N(C)C (stereo partly specified),2%,-2%
CCOC(=O)C1=C(N)c2ccccc2CC1C(C)C (stereo unspecified),.,-17%
CCN1CCN(C(=O)c2cccc(OC3CCN(S(=O)(=O)N(C)C)CC3)c2)CC1,i,-20%
CC(c1nc2ccccc2[nH]1)N(C(=O)Cc1csc2ccccc12)c1cccnc1 (stereo unspecified),19%,-2%
Cc1ccc(OCCSc2ncnc3sc(C)c(C)c23)cc1C,-16%,-4%
CC(CCc1ccccc1)NC(=O)c1cccc([N+](=O)[O-])c1 (stereo unspecified),-9%,-1%
O=C(CN1CCN(C(c2ccccc2)c2ccccc2)CC1)N1CCOCC1,-13%,-4%
O=C(Nc1nnc(CCN2CCCCC2)s1)c1ccccc1Cl,0%,-8%
OCCNc1nc2ccccc2nc1NCCO,-25%,3%
O=C(CN1C(=O)CCc2cc(S(=O)(=O)N3CCOCC3)ccc21)NCc1ccccc1,-14%,-10%
COc1ccc(CNc2nc(-c3ccco3)nn2C(=O)c2ccccc2C)cc1,-17%,-16%
CC(C)(C)OC(=O)N[C@@H](C(=O)OC(C)(C)C)c1ccc(Br)cc1,i,-3%
O=S(=O)(NCc1ccccc1)[C@@H]1CC2C=CC1C2 (stereo partly specified),-3%&-5%,-7%&-7%
CN1CCN(c2nc(Nc3ccc(O)cc3)nc3ccccc23)CC1,?,-11%
C#CCN(C[C@H]1[C@H](OC(=O)NCC2CCCCC2)[C@H](OC(=O)NCC2CCCCC2)C[C@@H](C(=O)OC)[C@H]1C(=O)OC)S(=O)(=O)c1ccc(C)cc1,-15%,?
CC(C)[C@@H](C(=O)NCc1ccco1)N1C(=O)N2CCc3c([nH]c4ccccc34)[C@@]2(C)C1=O,-6%,4%
CCOc1ccc(NC(=S)N2CCCCCC2)cc1,-10%,-7%
O=C(O)c1ccc(-c2ccccc2)[nH]c1=O,-15%,-6%
Cc1ccc(-c2noc(-c3ccccc3C(=O)NCc3ccco3)n2)cc1,i,-18%
Oc1c(Br)cc(Br)cc1-c1nc2ccccc2s1,-2%,-2%
O=C(CSc1ncnc2ccccc12)NCCCO,-2%,0%
COc1ccc(-c2n[nH]c3c2C(c2ccc(O)cc2)N(c2ccc(Br)cc2)C3=O)cc1 (stereo unspecified),-1%[7.34 µM],-2%[7.34 µM]
Cc1noc(C)c1S(=O)(=O)NC1CCN(Cc2ccccc2)CC1,i,1%
C/C(=N\NC(=O)c1ccccn1)c1ccc(Cl)cc1,-10%,-16%
CCOC(=O)C1(CC2CCCCO2)CCN(Cc2nccn2-c2cccc(C)c2)CC1 (stereo unspecified),-28%,-16%
CC(C)n1c2ccccc2c2nnc(SCC(=O)Nc3ccccc3C(=O)O)nc21,0%,5%
CSc1ccc(/C=C(/NC(=O)c2ccc(C)cc2)C(=O)Nc2cccc(C)c2)cc1,i,-15%
CCOC(=O)C1(CC2CCCCO2)CCN(S(=O)(=O)c2c(C)nn(C)c2C)CC1 (stereo unspecified),0%,2%
O=C(c1ccc(NS(=O)(=O)c2ccc(Cl)cc2)cc1)N1CCOCC1,i,-1%
CCCCCNC(=O)C(c1ccc(OC)cc1)n1c(=O)c(-c2ccccc2)nc2ccccc21 (stereo unspecified),i,-24%
CCOC(=O)c1cccc(Nc2c3c(nc4ccccc24)CCC3)c1,-5%,-18%
Cc1cc(Cl)ccc1NC(=O)C1CCCN1S(=O)(=O)c1ccc2c(c1)CCCC(=O)N2 (stereo unspecified),-26%,-25%
CCc1ccc(NC(=O)C2CCC(CNS(=O)(=O)c3ccc4c(c3)CC(C)N4C(C)=O)CC2)cc1 (stereo unspecified),-9%[7.34 µM],-12%[7.34 µM]
Cc1nnc(NC(=O)C2CC(=O)N(c3ccccc3)C2)s1 (stereo unspecified),-12%,2%
Cc1ccc(C(=O)CSc2nnc(COc3ccccc3)o2)cc1,-11%,-6%
O=C(NCCCN1CCCC1)c1ccc2c(c1)N(Cc1cccc(Cl)c1)C(=O)c1ccccc1S2(=O)=O,-11%,-28%
CC(NC(=O)c1cccc2ccccc12)c1ccc2c(c1)CCCC2 (stereo unspecified),-14%,0%
COc1ccccc1NC(=O)CCn1nc(-c2ccccc2)c2ccccc2c1=O,-9%,-11%
CCOC(=O)c1[nH]c2ccc(OC)cc2c1NC(=O)CN1CCSCC1,-11%,-12%
Cc1ccc2[nH]c(=O)c(COC(=O)c3cccs3)cc2c1,-8%,-12%
CCCNC(=O)C1(C)CCCN(Cc2ccc(-c3ccccc3)o2)C1 (stereo unspecified),10%,-7%
O=C(CSc1ccc(Cl)cc1)Nc1nnc(-c2cccc([N+](=O)[O-])c2)s1,4%,-3%
N#CC1(NC(=O)CSc2n[nH]c(-c3ccccc3)n2)CCCCC1,0%,-13%
CCOC(=O)CC(NC(=O)CCc1c(C)nc2c(-c3ccccc3)c(C)nn2c1C)c1ccc(C)cc1 (stereo unspecified),-23%,-19%
O=S(=O)(Nc1ccc2c3c(cccc13)CC2)c1ccc(F)cc1,.,-17%
O=C(c1ccc(F)cc1)N1CCCC(C(=O)N2CCN(c3ccccc3)CC2)C1 (stereo unspecified),i,-19%
CCCCOc1cccc(C(=O)NNC(=S)NC2CCCCC2)c1,.,?
Cc1nc2scc(C)n2c(=O)c1S(=O)(=O)Nc1ccc(N2CCN(C(=O)C(C)C)CC2)cc1,-16%,-6%
C=CCNC(=O)c1ccc(Sc2ccccc2)c([N+](=O)[O-])c1,.,-14%
O=C(NNC(=O)c1ccc(Cl)cc1Cl)c1cccs1,i,-5%
CCCCCCC(=O)Nc1c2c(nc3ccccc13)N(C)CC2,-12%,-11%
CC(Oc1ccccc1)C(=O)N[C@@H]1C(=O)N2C(C(=O)O)C(C)(C)S[C@H]12 (stereo partly specified),i,-9%
CCC(C)(C)NC(=O)C(c1ccc(F)cc1)N(Cc1cccc(OC)c1)C(=O)c1cnccn1 (stereo unspecified),-27%,-13%
Cc1ccc2nc(SCC(=O)NC3CCCCC3)nc(=O)n2c1,i,-8%
COc1ccc(CCNS(=O)(=O)c2cc(-c3cc(C)no3)ccc2OC)cc1OC,i,-12%
CC(=O)CC(=O)Nc1ncccn1,-2%,-7%
Cc1cccc(OCCSc2nc3c([nH]2)c(=N)ncn3Cc2ccccc2)c1,-16%,?

# Carrying on:
SMILES,VACV mCherry inh,Vaccinia Venus
COc1ccc(NC(=O)c2sc3nc4c(cc3c2N)CCCCCC4)cc1,-14%,?
CS(=O)(=O)N(CC(=O)Nc1ccc2c(c1)OCCO2)Cc1ccc(Cl)cc1,.,-20%
CC[C@@H]1Cc2[nH][nH]c(=O)c2[C@H](c2ccc(Cl)cc2)O1,-6%,4%
CCN(CC)C(=O)Cn1cc(S(=O)(=O)CC(=O)Nc2ccccc2C)c2ccccc21,-7%,-5%
O=c1cc(CCl)nc(Cc2c(Cl)cccc2Cl)[nH]1,?,?
CC(OC(=O)CCCc1nc2ccccc2s1)C(N)=O (stereo unspecified),.,-21%
CC(C)c1ccc(N(CC(=O)NCCCN2CCOCC2)S(=O)(=O)c2ccccc2)cc1,-3%,-18%
COc1ccc(CC2NCC(O)C2OC(C)=O)cc1 (stereo unspecified),0.0089µM*,0.11µM*
COc1cccc(OC)c1C(=O)Nc1sc2c(c1C#N)CCC2,-12%,-8%
COC(=O)c1sccc1S(=O)(=O)N(CC(=O)Nc1ccccc1F)c1ccccc1,-3%,4%
COc1ccc(OC(=O)COc2ccc(C)cc2)cc1,i,9%
Clc1ccc(CSc2ccc(-c3cccs3)nn2)cc1,-14%,-2%

# Ordered by count of non-hydrogen atoms (lowest first): part of the list above.
SMILES,VACV mCherry inh,Vaccinia Venus
CC(=O)CC(=O)Nc1ncccn1,-2%,-7%
O=c1cc(CCl)nc(Cc2c(Cl)cccc2Cl)[nH]1,?,?
CC[C@@H]1Cc2[nH][nH]c(=O)c2[C@H](c2ccc(Cl)cc2)O1,-6%,4%
Clc1ccc(CSc2ccc(-c3cccs3)nn2)cc1,-14%,-2%
COc1cccc(OC)c1C(=O)Nc1sc2c(c1C#N)CCC2,-12%,-8%
CC(Oc1ccccc1)C(=O)N[C@@H]1C(=O)N2C(C(=O)O)C(C)(C)S[C@H]12 (stereo partly specified),i,-9%
COc1ccc(NC(=O)c2sc3nc4c(cc3c2N)CCCCCC4)cc1,-14%,?
Cc1cccc(OCCSc2nc3c([nH]2)c(=N)ncn3Cc2ccccc2)c1,-16%,?
COC(=O)c1sccc1S(=O)(=O)N(CC(=O)Nc1ccccc1F)c1ccccc1,-3%,4%
CCN(CC)C(=O)Cn1cc(S(=O)(=O)CC(=O)Nc2ccccc2C)c2ccccc21,-7%,-5%
CC(C)c1ccc(N(CC(=O)NCCCN2CCOCC2)S(=O)(=O)c2ccccc2)cc1,-3%,-18%
CCC(C)(C)NC(=O)C(c1ccc(F)cc1)N(Cc1cccc(OC)c1)C(=O)c1cnccn1 (stereo unspecified),-27%,-13%

# (next part)
SMILES,VACV mCherry inh,Vaccinia Venus
COc1cc(OC)cc(C(=O)Nc2ccc3oc(-c4cccc5c(Br)cccc45)nc3c2)c1,-8%,-5%
CC(=O)Nc1ccc(C(=O)NCCCOC(C)C)cc1,-10%,-8%
Cc1sc2nc(SCc3nc(-c4cccs4)no3)n(-c3ccccc3)c(=O)c2c1C,-16%,-16%
COc1cc(C2C(C(=O)Nc3ccc(Cl)cc3)=C(C)Nc3nc(SC)nn32)cc(OC)c1OC (stereo unspecified),3%,-6%
CCOc1ccccc1NC(=O)C1CCCN(S(C)(=O)=O)C1 (stereo unspecified),-6%,-11%
Cc1ccc(-n2cccc2/C=C2/C(=N)N3C(=NC2=O)SN=C3S(C)(=O)=O)cc1Cl,4%,11%
COc1ccc(S(=O)(=O)N(CC(=O)NC(C)c2ccccc2)c2ccc(C)cc2)cc1OC (stereo unspecified),-8%,-25%
Cc1ccnc2ccc(I)cc12,-20%,-9%
Cc1nc(C)c(C(=O)N2CCCC(C(=O)c3cc(F)ccc3F)C2)s1 (stereo unspecified),-8%,-5%
CN1CC[C@]23c4c5ccc(OC6OC(C(=O)O)[C@@H](O)C(O)[C@H]6O)c4OC2C(O)C=CC3[C@H]1C5 (stereo partly specified),i,-9%
COc1ccc(N/C(N)=N/c2nc(CSc3nnc(C)s3)cc(=O)[nH]2)cc1,-27%,-20%
NCCc1c[nH]c2ccc(O)cc12,-11%,-17%
CC(C)C[C@H]1CNC(=S)N1CC1CCCN1C[C@H](Cc1ccc(O)cc1)N1C[C@H](Cc2ccccc2)N(CC2CCCCC2)C1=S (stereo partly specified),?,-24%
CC(C)Cn1c(N)c(C(=O)COC(=O)[C@@H]2CCCN2C(=O)c2cccs2)c(=O)n(C)c1=O,-5%,-21%
C=CCn1c(=O)c2c(C)c(C)sc2n2c(Nc3ccc(OC)cc3)nnc12,-22%,-21%
O=C(O)CC(SCC(=O)Nc1ccc(Cl)c(S(=O)(=O)N2CCOCC2)c1)C(=O)O (stereo unspecified),i[7.34 µM],-12%[7.34 µM]
Cc1ccc(S(=O)(=O)N2CCCCC2C(=O)O)s1 (stereo unspecified),i,-17%
NC(=O)CC(NC(=O)c1ccc(Br)cc1)c1ccc(N2CCCCCCC2)c([N+](=O)[O-])c1 (stereo unspecified),-23%,?
CCOc1cc(/C=N/O)cc(Br)c1OC,i,-6%
COc1ccc(S(=O)(=O)N2CCC(C(=O)Nc3cc(Cl)ccc3N3CCOCC3)CC2)cc1OC,-27%,-19%
Fc1ccc(-n2cc(-c3ccccc3)c3c(=S)nc[nH]c32)cc1,-5%,-14%
OC1(c2cccnc2)CCN(Cc2ccc3c(c2)CN(Cc2ccc(Cl)cc2)CCO3)CC1,-17%,-12%
CC(C)c1ccc(/C=N/N2CCCCC2)cc1,-5%,2%
CC1CN=C(NCc2ccccc2)S1 (stereo unspecified),i,-11%

# The closing two compounds of the part before are carried over, then new ones follow:
SMILES,VACV mCherry inh,Vaccinia Venus
CC(C)c1ccc(/C=N/N2CCCCC2)cc1,-5%,2%
CC1CN=C(NCc2ccccc2)S1 (stereo unspecified),i,-11%
COCCN1C(=O)C(C(=O)OC)CC2=C1CC(C)(C)CC2=O (stereo unspecified),i,-6%
CCCn1c(N)c(N(CCOC)C(=O)c2ccccc2)c(=O)[nH]c1=O,-14%,-1%
Cc1ccc2c(c1)C(=O)N1[C@H]3c4cc(Cl)ccc4OC[C@@H]3[C@H](c3ccccc3)[C@]1(C)C(=O)N2,-29%,?
COc1ccc(CN2CCNC(=O)C2CC(=O)N(C)Cc2ccon2)c(OC)c1 (stereo unspecified),-23%,-1%
CC(=O)Nc1ccc(OCCCNC(=O)c2c(-c3ccccc3)noc2C)cc1,0%,-24%
COC(=O)[C@]12CCCCC=C1N(Cc1ccc(Cl)cc1Cl)C(=O)[C@H](CC(=O)NCC13CC4CC(CC(C4)C1)C3)C2,i,3%
O=C(NC(NC(=S)Nc1ccc(Cl)c(Cl)c1)C(Cl)(Cl)Cl)c1ccco1 (stereo unspecified),.,?
COc1ccc(S(=O)(=O)NC2CCCCC2)cc1-n1cnnn1,7%,6%

# Assay outcomes deposited in PubChem by National Center for Advancing Translational Sciences (NCATS).
